Six1-Eya2 inh – Six1/Eya2 interaction inhibition | AlphaScreen GST-Six1/His-Eya2 binding, biochemical; active compounds read low; control for the full effect not named in the record | 0.56% of 360,000 active | activity change, % (concentration not given with the values); in the data active = activity change below about -65%; inconclusive = about -30% to -65%; inactive = above about -30%; also: % is scaled to controls: 0 for no effect and ±100 for the full control effect
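AlphaScreen luminescence read after one hour at 37 °C in darkness. Pin-transferred compounds met GST-Six1 and His-Eya2 protein (5X stock 250 nM/500 nM) plus glutathione donor and Ni-chelate acceptor beads (5X, 50 ug/mL).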
PINK1 modulator – changes PINK1 expression | PINK1 immunofluorescence, high-content cytometry, 24 h | Potency, µM (titrated, usually from 76.6 µM), for inactives: at the top dose activation (PINK1 increase), usual class: activators | 0.2% of 410,000 active; active = well fitted activation curve with a large enough effect; inconclusive = small, poorly fitted or top-dose-only effect; inactive = flat fitted curve, though single readings scatter; cell line not stated here;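 also: potency is read from the fitted curve at half-maximal effect; % of control where 0% means no effect; nearly all actives have a fitted effect of over 65% in size; a mitochondrial uncoupler was the plate control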
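Cells are seeded, rested 12 hours, then given compound at five concentrations or DMSO for 24 hours. After fixation, blocking and antibody staining, PINK1 amount and mitochondrial localization are scored; CCCP serves as control.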
D2 agonist – human D2 receptor agonism in beta-arrestin assay. P14416. DiscoveRx PathHunter D2 beta-arrestin, luminescence, 90 min; 100% = 57 uM dopamine signal. activation, % (test concentration not listed). 0.084% of 360,000 active. AID 624465; in the data active = activation above about 40%; inconclusive = about 15% to 40%; inactive = below about 15%; also: compound concentration not given in the record; the text of the record calls up to 30% inactive
Target sequence (P14416 whole entry, looked up): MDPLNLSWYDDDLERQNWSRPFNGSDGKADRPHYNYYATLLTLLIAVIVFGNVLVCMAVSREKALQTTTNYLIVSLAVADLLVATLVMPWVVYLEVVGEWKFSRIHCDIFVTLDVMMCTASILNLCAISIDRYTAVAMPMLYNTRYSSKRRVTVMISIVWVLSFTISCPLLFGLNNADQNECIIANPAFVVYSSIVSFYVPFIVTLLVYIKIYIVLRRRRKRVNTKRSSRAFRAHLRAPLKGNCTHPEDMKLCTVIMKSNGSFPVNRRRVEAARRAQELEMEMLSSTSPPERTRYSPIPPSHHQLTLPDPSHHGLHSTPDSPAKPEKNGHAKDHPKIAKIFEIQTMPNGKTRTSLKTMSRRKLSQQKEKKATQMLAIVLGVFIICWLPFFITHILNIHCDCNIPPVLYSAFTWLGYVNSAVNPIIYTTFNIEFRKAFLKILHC
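Agonist mode: compounds alone added to overnight-plated D2 PathHunter cells for 90 min at 37 C, with 57 uM final dopamine (EC100) defining full response. Beta-arrestin recruitment detected by chemiluminescent reagent, read after 1 h at ambient temperature.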
D2 potentiator – potentiates the human D2 dopamine receptor allosterically; P14416; DiscoveRx D2 beta-arrestin cells, luminescence, 90 min; 100% = 57 uM dopamine signal; potentiation, % (no concentration beside the values); 0.23% of 360,000 active; active = potentiation of 50% or more; inconclusive = 30% to 50%; inactive = 30% or less;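 also: compound concentration not given in the record; tested on top of an EC20 dose of dopamine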
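PathHunter D2 cells, attached overnight at 37 deg C, received compound in DMSO plus dopamine at EC20 (50 nM final) for 90 min at 37 deg C. Beta-arrestin recruitment was read as luminescence after 1 h with detection reagent at ambient temperature.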
TRPML1 agonist – human mucolipin-1 channel agonism. Q9GZU1. TRPML1-expressing cells, Ca2+ dye fluorescence, FDSS; host cell line not named in the record; reference of the full effect not given here. activation, % (concentration not given with the values). 0.12% of 410,000 active. AID 624414; in the data active = activation above about 50%; inconclusive = about 30% to 50%; inactive = below about 30%; also: 0% is about no effect; the text of the record puts the active cut at 80%
Target sequence (Q9GZU1 whole entry, looked up): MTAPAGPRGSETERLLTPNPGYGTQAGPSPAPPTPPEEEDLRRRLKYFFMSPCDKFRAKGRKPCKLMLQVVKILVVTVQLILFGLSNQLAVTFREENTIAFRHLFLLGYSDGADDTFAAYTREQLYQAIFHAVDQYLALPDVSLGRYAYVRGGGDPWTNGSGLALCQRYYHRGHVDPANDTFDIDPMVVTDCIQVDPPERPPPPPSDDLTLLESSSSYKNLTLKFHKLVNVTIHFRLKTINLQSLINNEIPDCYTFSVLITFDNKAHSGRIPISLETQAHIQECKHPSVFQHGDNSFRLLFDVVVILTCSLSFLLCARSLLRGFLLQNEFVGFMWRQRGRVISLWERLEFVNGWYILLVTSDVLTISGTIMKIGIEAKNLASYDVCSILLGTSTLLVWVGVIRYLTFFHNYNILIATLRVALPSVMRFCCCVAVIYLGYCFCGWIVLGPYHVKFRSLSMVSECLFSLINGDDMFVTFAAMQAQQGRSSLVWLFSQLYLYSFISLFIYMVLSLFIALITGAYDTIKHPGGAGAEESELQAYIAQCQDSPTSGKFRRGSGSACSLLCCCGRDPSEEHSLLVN
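Tetracycline-induced TRPML1-DL cells are seeded and incubated overnight before loading with a no-wash Ca2+ dye and quencher. Agonist activity is taken from the 110 s fluorescence read following compound pin-transfer on an FDSS, before EC80 54-4 challenge.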
TRPML1 inh – inhibitors of human TRPML1 channel; TRPML1-inducible cells, Ca2+ dye fluorescence, FDSS; active compounds read low; inhibition of EC80 agonist-evoked calcium signal; 0.02% of 390,000 active; AID 624415; Q9GZU1; activity change, negative = inhibition, % (test concentration not listed); in the data active means activity change below about -50%; inconclusive means about -30% to -50%; inactive means above about -30%;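 also: stimulus is agonist 54-4 at its EC80 concentration; % is scaled to controls: 0 for no effect and ±100 for the full control effect; compound concentration not given in the record; the text of the record puts the active cut at -80%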
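Tet-induced TRPML1-DL cells loaded with Ca8 no-wash calcium dye were read kinetically on FDSS. Compound addition was followed by EC80 agonist 54-4 (4 uM final); inhibition was read over 110 s.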
The depositor's hits bear a star; [ ] = remark or other dose.

Screening O=C(Cc1ccc(Cl)cc1)NCCc1ccc(F)cc1 returned Six1-Eya2 inh 5.0, PINK1 modulator -0.7%, D2 agonist 4.3, D2 potentiator -1.4, TRPML1 agonist 0.3 and TRPML1 inh 19.7.
Screening c1ccc(Cn2ncc3c(N4CCCCC4)ncnc32)cc1 returned Six1-Eya2 inh -18.4, PINK1 modulator 3.0%, D2 agonist -1.4, D2 potentiator 11.4, TRPML1 agonist -1.2 and TRPML1 inh 18.7.
COc1ccc(CCNC(=O)CCc2c(C)nc3c4cccnc4nn3c2C)cc1OC was read as PINK1 modulator -0.6%, TRPML1 agonist -0.1 and TRPML1 inh 3.7.
Screening CC(=O)Nc1ccc(S(=O)(=O)NCCC(=O)NCc2ccco2)cc1 returned Six1-Eya2 inh 3.7, PINK1 modulator 2.2%, D2 agonist -1.8, D2 potentiator -4.3, TRPML1 agonist 0.2 and TRPML1 inh 15.4.
`COc1cc(C(=O)NCCc2cn3ccccc3n2)cc(OC)c1OC` gave Six1-Eya2 inh 5.9, PINK1 modulator 0.2%, D2 agonist -4.8, D2 potentiator -6.8, TRPML1 agonist 0.1 and TRPML1 inh 37.6.
O=C(CCOc1ccccc1)Nc1cccc([N+](=O)[O-])c1 was read as Six1-Eya2 inh -3.4, PINK1 modulator 0.6%, D2 agonist -1.7, D2 potentiator -12.3, TRPML1 agonist -0.6 and TRPML1 inh 3.6.
For CC1(C)C(=O)C2(C(=O)NCc3ccccc3)CCC1C2 (stereo not given) the results were Six1-Eya2 inh -2.2, PINK1 modulator -1.3%, D2 agonist -2.3, D2 potentiator -13.7, TRPML1 agonist -0.1 and TRPML1 inh -3.3.
COc1ccc(NC(=O)C2CCC(=O)N2S(=O)(=O)c2ccc(C)cc2)cc1Cl (stereo not given) was read as Six1-Eya2 inh -10.1, PINK1 modulator 2.5%, D2 agonist -0.7, D2 potentiator -14.5, TRPML1 agonist -0.9 and TRPML1 inh 2.5.
Nc1ccc(Sc2cnn(-c3ccccc3)c(=O)c2Cl)cc1 was read as Six1-Eya2 inh -3.8, PINK1 modulator -1.1%, D2 agonist -2.0, D2 potentiator -16.2, TRPML1 agonist 0.5 and TRPML1 inh -2.0.
For O=C(CCCn1c(SCc2cc(=O)n3ccccc3n2)nc2ccccc2c1=O)NCC1CCCO1 (stereo not given) the results were Six1-Eya2 inh -5.4, PINK1 modulator 1.4%, D2 agonist -2.9, D2 potentiator -15.8, TRPML1 agonist -0.6 and TRPML1 inh -4.6.
`Cc1ccc2ccccc2c1C(O)c1ncc(-c2ccc(F)cc2)[nH]1` (stereo not given) gave Six1-Eya2 inh -24.6, PINK1 modulator 4.8%, D2 agonist -4.3, D2 potentiator -17.5, TRPML1 agonist 1.0 and TRPML1 inh -14.6.
For C=CCOc1ccc(/C=N/O)cc1Cl the results were Six1-Eya2 inh 6.7, PINK1 modulator -0.3%, D2 agonist -2.6, D2 potentiator 0.5, TRPML1 agonist 0.4 and TRPML1 inh 2.4.
`CC(=O)c1ccc(N2CCN(C(=O)c3ccc4ccccc4n3)CC2)cc1` gave Six1-Eya2 inh -0.6, PINK1 modulator 0.7%, D2 agonist -4.3, D2 potentiator -7.2, TRPML1 agonist 2.8 and TRPML1 inh 1.6.
CCc1ccc([C@@H]2CC(=O)[C@@H]3CN(S(=O)(=O)c4ccccc4C)[C@H](c4ccc(Cl)cc4)C[C@@H]3N2S(=O)(=O)c2ccc(C)cc2)cc1 was read as Six1-Eya2 inh 4.5, PINK1 modulator -1.4%, D2 agonist -3.1, D2 potentiator 11.2 and TRPML1 agonist -0.1.
For C=CCc1ccc(OCCOc2cccc3ccc(C)nc23)c(OC)c1 the results were Six1-Eya2 inh -0.6, PINK1 modulator 3.9%[38.3 µM], D2 agonist -2.6, D2 potentiator -13.7, TRPML1 agonist 2.8 and TRPML1 inh 15.1.
For CC(C)Oc1ccc(CNC(=O)c2cnc3sc(N4CCCC4)nn3c2=O)cc1 the results were PINK1 modulator 0.2%, TRPML1 agonist 0.1 and TRPML1 inh 20.7.
C=CCNC(=S)NNC(=O)COc1ccc(Cl)cc1Cl was read as Six1-Eya2 inh 0.7, PINK1 modulator 1.1%, D2 agonist -5.2, D2 potentiator -23.3, TRPML1 agonist 0.4 and TRPML1 inh -0.8.
For COc1cccc(C(=O)N2CCC(C(=O)Nc3cccc(Cl)c3)CC2)c1 the results were PINK1 modulator 1.0%, TRPML1 agonist -1.2 and TRPML1 inh 15.1.
CCn1nc(-c2ccccc2)c(-c2ccccc2)c(C(=O)Nc2ccc(S(N)(=O)=O)cc2)c1=O was read as PINK1 modulator -0.8%, TRPML1 agonist 5.1 and TRPML1 inh -3.8.
`CC(C)(C)c1ccc(NC(=O)COC(=O)C2(C)CC2(Cl)Cl)cc1` (stereo not given) gave Six1-Eya2 inh 2.9, PINK1 modulator inconclusive, D2 agonist -5.1, D2 potentiator -16.9, TRPML1 agonist 1.4 and TRPML1 inh -2.9.
For COc1cccc(NS(=O)(=O)c2ccc3c(c2)CCCN3C(C)=O)c1 the results were Six1-Eya2 inh -0.4, PINK1 modulator 4.5%[38.3 µM], D2 agonist 0.9, D2 potentiator -2.7, TRPML1 agonist -0.2 and TRPML1 inh -2.0.
COC(C[C@H](O)CC(=O)[C@@H](C)OCc1ccccc1)OC was read as Six1-Eya2 inh -6.3, PINK1 modulator -0.1%, D2 agonist 2.1, D2 potentiator -13.0, TRPML1 agonist -0.9 and TRPML1 inh -6.1.
`Cc1ccc(NC(=O)c2cccc(NC3=NC4CS(=O)(=O)CC4S3)c2)cc1` (stereo not given) gave Six1-Eya2 inh 9.1, PINK1 modulator 0.4%, D2 agonist 0.9, D2 potentiator -0.7, TRPML1 agonist -0.5 and TRPML1 inh 12.6.
Screening CCOc1ccc(NC(=O)CN(c2ccc(C)cc2)S(=O)(=O)c2c(C)nn(C)c2C)cc1 returned Six1-Eya2 inh 1.0, PINK1 modulator -1.2%, D2 agonist -1.1, D2 potentiator -9.2, TRPML1 agonist 0.3 and TRPML1 inh -4.5.
`COc1ccc(N(C(=O)c2cccnc2)S(=O)(=O)c2cccs2)cc1` gave Six1-Eya2 inh 4.4, PINK1 modulator 5.5%, D2 agonist 1.0, D2 potentiator -7.1, TRPML1 agonist -0.6 and TRPML1 inh 6.9.
Screening CCCCOC(=O)c1ccc(NC(=O)CC2NCCNC2=O)cc1 (stereo not given) returned PINK1 modulator 0.3%, TRPML1 agonist 0.0 and TRPML1 inh 8.8.
COc1cccc(-c2cc(C(=O)N/N=C/c3ccc(OC)c(COC(C)=O)c3)c3ccccc3n2)c1 was read as Six1-Eya2 inh -23.9, PINK1 modulator -0.2%, D2 agonist -0.9, D2 potentiator 23.0, TRPML1 agonist -0.8 and TRPML1 inh -2.5.
CCC1CCc2nc3sc(C(=O)Nc4cccc(C(F)(F)F)c4)c(N)c3cc2C1 (stereo not given) was read as PINK1 modulator 3.1%, TRPML1 agonist -0.2 and TRPML1 inh -20.2.
`CC(=O)N1CCc2c(sc(NC(=O)c3ccc4c(c3)OCCO4)c2C#N)C1` gave Six1-Eya2 inh 3.4, PINK1 modulator 0.3%, D2 agonist -0.7, D2 potentiator 0.1, TRPML1 agonist -0.6 and TRPML1 inh 3.5.
For CN1CCN(C(=O)CN(c2cccc(Br)c2)S(=O)(=O)c2ccccc2)CC1 the results were Six1-Eya2 inh 12.2, PINK1 modulator -0.6%, D2 agonist 0.0, D2 potentiator -12.8, TRPML1 agonist 2.2 and TRPML1 inh -16.9.
Cn1nnnc1SCC(=O)N1CCCCC1 was read as Six1-Eya2 inh -0.3, PINK1 modulator -0.7%, D2 agonist -3.7, D2 potentiator -4.0, TRPML1 agonist 0.3 and TRPML1 inh 11.3.
C#Cc1ccc([C@H]2C=C(C(=O)NCc3nc4ccccc4[nH]3)O[C@@H](OCC)[C@@H]2CCCO)cc1 was read as Six1-Eya2 inh -6.9, PINK1 modulator -0.4%, D2 agonist 4.1, D2 potentiator 2.1, TRPML1 agonist 1.2 and TRPML1 inh -16.3.
For CCOCCCNC(=O)C(c1ccccc1)N(Cc1cccs1)C(=O)c1ccc(NC(C)=O)cc1 (stereo not given) the results were PINK1 modulator 1.8%, TRPML1 agonist -0.1 and TRPML1 inh 0.7.
`O=C(OCCN1CCOCC1)c1ccc(O)cc1` gave Six1-Eya2 inh -8.0, PINK1 modulator -0.4%, D2 agonist -2.2, D2 potentiator -2.0, TRPML1 agonist -0.7 and TRPML1 inh 14.4.
CCN1CCN(CCNC(=O)CCc2c(C)c3c(C)nn(-c4ccccc4)c3n(C)c2=O)CC1 was read as Six1-Eya2 inh -9.4, PINK1 modulator 1.2%, D2 agonist -2.8, D2 potentiator -11.9, TRPML1 agonist -0.2 and TRPML1 inh 13.2.
O=C(O)CC/C(=N\NC(=O)c1ccccc1)c1cccs1 was read as Six1-Eya2 inh 1.3, PINK1 modulator 3.3%, D2 agonist -1.9, D2 potentiator -2.5, TRPML1 agonist 0.2 and TRPML1 inh -17.9.

Retrieved by structure from above, 2 records:
CCC1CCc2nc3sc(C(=O)Nc4cccc(C(F)(F)F)c4)c(N)c3cc2C1 (stereo not given) was read as PINK1 modulator 3.1%, TRPML1 agonist -0.2 and TRPML1 inh -20.2.
C=CCNC(=S)NNC(=O)COc1ccc(Cl)cc1Cl was read as Six1-Eya2 inh 0.7, PINK1 modulator 1.1%, D2 agonist -5.2, D2 potentiator -23.3, TRPML1 agonist 0.4 and TRPML1 inh -0.8.

Other records
`O=C(NCC1CCCO1)c1ccc(COc2ccccc2)cc1` (stereo not given) gave Six1-Eya2 inh -0.2, PINK1 modulator 0.4%, D2 agonist 1.0, D2 potentiator -2.1, TRPML1 agonist -0.4 and TRPML1 inh 14.5.
For CCCc1nnc(NC(=O)Cc2coc3cc(C)cc(C)c23)s1 the results were PINK1 modulator -1.6%, TRPML1 agonist -0.2 and TRPML1 inh 19.0.
Screening O=C(NCc1ccco1)c1cc2c(s1)CCCCC2 returned Six1-Eya2 inh -1.5, PINK1 modulator -3.3%[38.3 µM], D2 agonist 1.7, D2 potentiator -7.7, TRPML1 agonist -0.7 and TRPML1 inh 4.1.
For Cc1cc(OCC(=O)N2CCOCC2)ccc1[N+](=O)[O-] the results were Six1-Eya2 inh 0.8, PINK1 modulator 0.5%, D2 agonist -4.4 and D2 potentiator 4.8.
Screening COc1ccc(OC)cc1 returned Six1-Eya2 inh 5.2, PINK1 modulator 0.0%, D2 agonist -5.6, D2 potentiator -30.7 and TRPML1 agonist -0.3.
`COc1ccc(OC)c(CCNC(=O)CCn2nc(C)c3c(C)n(-c4ccccc4)nc3c2=O)c1` gave Six1-Eya2 inh 1.0, PINK1 modulator 0.1%, D2 agonist 4.8, D2 potentiator 1.2, TRPML1 agonist 1.3 and TRPML1 inh 4.4.
Cc1ccc(Sc2ncccc2COC(=O)Nc2ccccc2)cc1 was read as Six1-Eya2 inh 14.2, PINK1 modulator 4.9%, D2 agonist 1.1, D2 potentiator 0.4, TRPML1 agonist 2.0 and TRPML1 inh 13.3.
`CCCCCCn1cc(CN2CC(N3CCCC3)CS2(=O)=O)nn1` (stereo not given) gave Six1-Eya2 inh 0.1, PINK1 modulator -0.7% and TRPML1 agonist -0.8.
Cc1cc2nc(-c3ccc(Cl)cc3)c(CC3CCCCC3)n2c(C)c1Br was read as Six1-Eya2 inh 7.3, PINK1 modulator 6.9% and TRPML1 agonist 1.8.

Compound activity: PubChem, National Center for Advancing Translational Sciences (NCATS)
